GIV-Gai inh: inhibitors of GIV GBA-motif binding to rat Galpha-i3; hit rate 0.42% among 210,000; P08753; percent of control (FP), % (test concentration not listed); Galpha-i3/FITC-GIV peptide fluorescence polarization, 90 min; hits give low values; scaled: aluminum fluoride 0%, vehicle 100%;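 active means replicate mean at 85% of control or lower, very high polarization wells dropped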;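 further: wells of about 15 µL received 100 nL stock; the first replicate is given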
Target sequence (P08753 whole entry, looked up): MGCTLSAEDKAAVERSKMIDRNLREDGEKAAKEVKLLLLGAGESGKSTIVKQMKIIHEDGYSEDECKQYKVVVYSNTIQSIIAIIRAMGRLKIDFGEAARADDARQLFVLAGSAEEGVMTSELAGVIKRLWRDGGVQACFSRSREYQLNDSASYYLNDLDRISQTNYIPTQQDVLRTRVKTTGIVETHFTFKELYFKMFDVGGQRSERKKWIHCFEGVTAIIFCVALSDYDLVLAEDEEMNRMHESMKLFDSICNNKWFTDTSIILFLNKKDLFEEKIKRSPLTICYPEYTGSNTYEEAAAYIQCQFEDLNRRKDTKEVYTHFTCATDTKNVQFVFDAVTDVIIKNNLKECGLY
Sa growth inh: S. aureus growth inhibition | S. aureus RN4220 growth, OD600, 20 h, 42 °C; hits give low values | relative growth, % (no concentration beside the values) | hit rate 0.53% among 170,000 | AID 720641;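 active means growth at 42 °C up to 50% and 20 or more points under that at 30 °C, or under 10% at both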;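 further: 300 nL library stock went into each well; scaled to the means of positive and negative controls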
HCMV NEC inh: disrupts HCMV UL50-UL53 complex binding. hit rate 0.15% among 190,000. inhibition, % (no concentration beside the values). AID 1918969. HTRF UL50-UL53 interaction, normalized percent inhibition;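 active means both replicates at 50% or more, plus weaker picks with an unusually low signal ratio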;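 further: stock transfer was 100 nL into about 20 µL; 0% = negative control wells and 100% = wells with untagged competitor protein; inactives centre near -12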
Sa growth inh second temp: recorded beside Sa growth inh, whose call it bears; relative growth, %; measured here: growth at 30 °C;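 optical density after 20 h as mean of two plates; 100% = untreated growth and lower means inhibition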
Active calls of the source: *; · = not tested or not shown; & = joins results of further samples.

SMILES	GIV-Gai inh	Sa growth inh	Sa growth inh second temp	HCMV NEC inh
COc1cccc(Sc2nc3ccccc3n3c(=O)n(CC(=O)Nc4ccccc4OC)nc23)c1	110.4	·	·	5.0
Cc1cccc(NC(=O)C(Cc2ccccc2)NS(=O)(=O)c2ccc3c(c2)c(=O)n(C)c(=O)n3C)n1 (stereo not given)	100.5	87.5	88.5	-34.4
CC(C)CC(=O)NCCc1csc(-c2ccc(Cl)cc2)n1	100.3	·	·	-36.7
Cc1ccccc1C(=O)Nc1ccc2c(c1)NC(=O)C(C)O2 (stereo not given)	104.0	·	·	-28.8
CCOC(=O)c1cc(Cl)c(NC(=O)C(F)(F)F)c(Cl)c1	100.1	71.2	35.0	·
COCCCn1c(=O)c2sccc2n2c(CCCC(=O)Nc3cc(C)cc(C)c3)nnc12	107.2	110.4	86.6	·
CCN(CC)C(=O)Cn1cc(SCC(=O)Nc2ccccc2)c2ccccc21	100.6	99.0	80.5	-31.0
CCOC(=O)C1CCN(C(=O)Cn2c(=O)oc3cc(S(=O)(=O)N4CCC(C)CC4)ccc32)CC1	100.8&97.7	97.7	107.8	14.4&-42.8

Next part, overlapping the part above by 6 compounds.
SMILES	GIV-Gai inh	Sa growth inh	Sa growth inh second temp	HCMV NEC inh
CC(C)CC(=O)NCCc1csc(-c2ccc(Cl)cc2)n1	100.3	·	·	-36.7
Cc1ccccc1C(=O)Nc1ccc2c(c1)NC(=O)C(C)O2 (stereo not given)	104.0	·	·	-28.8
CCOC(=O)c1cc(Cl)c(NC(=O)C(F)(F)F)c(Cl)c1	100.1	71.2	35.0	·
COCCCn1c(=O)c2sccc2n2c(CCCC(=O)Nc3cc(C)cc(C)c3)nnc12	107.2	110.4	86.6	·
CCN(CC)C(=O)Cn1cc(SCC(=O)Nc2ccccc2)c2ccccc21	100.6	99.0	80.5	-31.0
CCOC(=O)C1CCN(C(=O)Cn2c(=O)oc3cc(S(=O)(=O)N4CCC(C)CC4)ccc32)CC1	100.8&97.7	97.7	107.8	14.4&-42.8
CCOC(=O)c1c(C)c(-c2ccccc2)n(CC(=O)Nc2cc(OC)cc(OC)c2)c1C	100.6	87.8	61.1	-14.2
C=Cc1ccc(Cn2nc3n(CC(C)C)c(=O)c4ccc(C(=O)NC(C)C)cc4n3c2=O)cc1	103.8	·	·	-28.3
COc1ccc(COc2ccc(=O)n(-c3ccc(C(=O)Nc4ccc5c(c4)OCCO5)cc3)n2)cc1	112.5	·	·	7.4
Cc1ccc(CN2CCCNC2=O)cc1	100.4	101.5	93.1	·
Fc1ccc(CNc2ccc(-c3nc(-c4ccc(F)cc4)no3)nn2)cc1	101.7	·	·	-18.2
COc1ccc(Cl)cc1NC(=O)COC(=O)CCC1CCCCC1	·	127.6	96.4	-10.7
COc1ccccc1NC(=O)Cn1nc2c3cc(F)ccc3n(Cc3cccc(C)c3)cc-2c1=O	104.4	112.9	93.0	·
CC(N=C1NS(=O)(=O)c2ccccc21)C(=O)OCc1nnc(-c2ccc(Cl)cc2)o1 (stereo not given)	·	119.8	70.9	-15.8
CC(=O)N1CCN(C(=O)c2ccc(C(=O)c3ccccc3)cc2)CC1	·	118.2	103.9	13.0
Cc1cccc2c1-c1sc(C(=O)N(C)c3cccc(C(F)(F)F)c3)cc1CO2	104.1	113.4	76.8	-8.7
Cc1c(C#N)c(NC(=O)COc2ccc(F)cc2Br)n(Cc2ccco2)c1C	·	103.8	108.5	11.0
COc1ccc(-c2cc(C(=O)OCC(=O)c3ccc(C)cc3)c3cccc(Cl)c3n2)cc1	100.6	93.0	89.6	-13.2
O=C1c2ccccc2S(=O)(=O)c2cc(C(=O)N(Cc3ccco3)Cc3cccs3)ccc21	·	94.7	87.8	-39.9
CC(C)N(C(=O)NC(=O)Nc1ccccn1)S(C)(=O)=O	·	77.6	84.4	-52.5
Cc1nn(CCCC(=O)NCCC2=CCCCC2)c(=O)c2nccn12	104.3	100.3	100.0	9.0
CN1CCC(N(C)C(=O)Nc2ccc(Cl)c(Cl)c2)CC1	110.7	103.0	59.9	13.0
CCC(C)n1c(=N)c(C(=O)NC2CCCCC2)cc2c(=O)n3ccccc3nc21 (stereo not given)	108.0	115.7	95.1	-109.0
CN(C(=O)c1ccc(S(C)(=O)=O)cc1)c1c(N)n(Cc2ccccc2)c(=O)[nH]c1=O	·	68.9	90.3	-5.5
CCC(=O)Nc1ccccc1-c1nnc(SC(CC)C(=O)Nc2ccccc2)[nH]c1=O (stereo not given)	96.1	·	·	-3.5
O=C(c1cc(-c2ccccc2)n[nH]1)N1CCn2c1nc1ccccc12	103.4	79.3	51.2	-11.1
COc1ccc(NC(=S)N2CCN(C)CC2)cc1	·	90.8	101.5	3.0
CCCNC(=O)CSc1c(-c2ccccc2)c2cc(Cl)ccc2[nH]c1=O	103.5	104.1	73.4	·
Cc1cccc(N2CCN(C(=O)Nc3ccccc3)CC2C)c1 (stereo not given)	100.4	94.0	79.6	·
CCCCCc1ccc(-c2ccc(C(=O)Oc3ccc(C(=O)OC)cc3)cc2)nc1	106.7	97.1	92.2	-9.5
O=C(CSc1nnnn1C1CCCC1)Nc1ccc(S(=O)(=O)N2CCCCC2)cc1	·	81.6	82.7	-22.1
COc1ccc(Nc2nn(-c3ccccc3)c3c2C(=O)CCC3)cc1	98.9	·	·	-14.6
COc1ccccc1CNC(=O)CNC(=O)c1cccc(C)c1	·	116.1	90.6	-10.0
CCC(CC)C(=O)Nc1nc2ccc(OC)cc2s1	99.4	114.5	102.0	1.8
CCOc1ccc(-c2nnc(SC(F)F)n2CCC(=O)O)cc1	·	87.3	96.6	-2.9
CC(C(=O)O)c1c(C(=O)O)[nH]c2ccccc12 (stereo not given)	97.8	96.6	88.2	-21.7
O=C(NCc1ccco1)c1cc2c(s1)CCCC2	·	133.2	76.5	-34.1
Cc1ccc(Cn2c(=O)n(Cc3ccc(C(=O)NC4CCN(Cc5ccccc5)CC4)cc3)c(=O)c3ccccc32)cc1	95.9	105.2	91.6	-9.7
COc1ccc(S(=O)(=O)N(CC(N)=O)c2ccc(C)cc2)cc1	105.5	105.0	80.6	·
CC(=O)Nc1ccccc1OCC(=O)c1cc(C)n(CC2CCCO2)c1C (stereo not given)	·	91.3	95.6	-9.4
CCOC(=O)CSc1nc2ccccc2c(=O)n1Cc1ccccc1OC	98.6	89.9	87.5	3.6
CCn1c(=O)c(=O)[nH]c2cc(C(=O)NCc3ccc(F)cc3)ccc21	·	109.7	94.7	-10.5
CC1CCCCC1NC(=O)CCn1c(=O)oc2ccccc21 (stereo not given)	104.2	116.0	89.3	·
O=C(Nc1ccc(-n2nncc2-c2ccccc2)cc1)c1ccc(S(=O)(=O)N2CCCCC2)cc1	104.2	118.6	97.5	·
CCC1CCCCN1C(=O)Cn1c(=O)n(CC2CCC(C(=O)NC3CCCC3)CC2)c(=O)c2ccccc21 (stereo not given)	107.8	112.9	104.3	0.3
O=C(Cc1csc2nc(-c3ccc(Cl)cc3)cn12)N1CCN(c2ccccc2)CC1	104.5&97.0	89.0	88.0	-25.0&-8.1

Arranged by count of non-hydrogen atoms (descending): three of the compounds above.
SMILES	GIV-Gai inh	Sa growth inh	Sa growth inh second temp	HCMV NEC inh
Cc1cccc(NC(=O)C(Cc2ccccc2)NS(=O)(=O)c2ccc3c(c2)c(=O)n(C)c(=O)n3C)n1 (stereo not given)	100.5	87.5	88.5	-34.4
O=C(Cc1csc2nc(-c3ccc(Cl)cc3)cn12)N1CCN(c2ccccc2)CC1	104.5&97.0	89.0	88.0	-25.0&-8.1
COc1ccc(S(=O)(=O)N(CC(N)=O)c2ccc(C)cc2)cc1	105.5	105.0	80.6	·

The results go on:
SMILES	GIV-Gai inh	Sa growth inh	Sa growth inh second temp	HCMV NEC inh
CCCCn1c(=O)c2oc3ccccc3c2n(Cc2cccc(Cl)c2)c1=O	103.9	92.3	83.6	-6.0
CCn1c(=O)c2sccc2n2c(CCCC(=O)Nc3ccc(OC)c(OC)c3)nnc12	104.3	110.4	89.6	·
COc1ccc(N2C(=O)C3C(C2=O)C2(C)C(=O)C3(C)C(c3ccccc3)=C2c2ccccc2)c([N+](=O)[O-])c1 (stereo not given)	103.5	·	·	3.5
CC/C(=N\NC(=O)c1cc(-c2ccco2)nc2ccccc12)c1ccc(F)cc1	·	84.5	92.5	-26.9
OC1CCN(C(c2cccc(C(F)(F)F)c2)c2nnnn2Cc2ccc(F)cc2)CC1 (stereo not given)	99.4	102.3	89.5	3.0
Cc1cc2nc(CSc3ccccc3C(=O)O)cc(=O)n2o1	110.4	87.2	78.9	-5.1
COc1ccc2[nH]cc(CCNC(=O)Nc3c(C)cccc3C)c2c1	102.0&103.7	111.0	87.5	-1.4&-10.8
CC1=C(c2ccc(C)c(C)c2)S(=O)(=O)N=C1N1CCC(C(=O)NCc2ccc(C)o2)CC1	98.5	95.3	90.1	·
N#Cc1ccccc1NC(=O)C1CCC1	104.5	102.6	97.8	6.6
CC(C)(C)c1c[n+](-c2ccccc2)c2n1CCCS2	·	74.0	98.0	6.8
CCOC(=O)C1=C(CSc2nnnn2-c2ccccc2OCC)NC(=O)NC1c1ccccc1 (stereo not given)	·	124.4	80.6	-21.7
CS(=O)(=O)N(CCc1ccc(Cl)cc1)S(C)(=O)=O	103.3	84.7	89.5	-21.6
COc1ccc(/C=N/OCC(=O)N2CCN(C)CC2)cc1	·	91.2	95.0	-33.6
O=C1CC(=O)Nc2cc(S(=O)(=O)Nc3ccccc3Br)ccc2N1	104.2	·	·	-23.8
COc1ccc(CCNC(=O)CCn2c(=O)c3ccccc3n(Cc3c(C)cc(C)cc3C)c2=O)cc1OC	102.7	101.6	87.9	1.3
CC1=Nc2ccccc2N=C(NC(=O)CN2CCN(c3ccccc3)CC2)C1c1ccccc1 (stereo not given)	104.3&101.0	99.1	86.2	-27.6&-12.3
Cc1ccc(NC(=O)CN2C(=O)c3ccccc3S2(=O)=O)cc1C	101.5	·	·	-13.3
O=C(O)CNC(=O)c1ccc(N2CCCC2=O)cc1	·	94.9	85.6	27.9
O=C1NC(c2ccccc2)/C(=C(\O)c2ccccc2)C1=O (stereo not given)	97.0	108.9	99.1	-34.4
CN(Cc1ccco1)C(=O)C(Cc1ccccc1)NS(=O)(=O)c1cccc2cccnc12 (stereo not given)	107.1	100.7	90.5	-1.5
CCOc1ccccc1N(Cc1nc2nc(C)cc(=O)n2[nH]1)C(=O)C1CCCCC1	100.4	·	·	6.8
COC(=O)C(O)C(Sc1ccccc1N)c1ccccc1 (stereo not given)	99.8	100.5	90.4	-11.6
Cc1ccc(C(O)C(=O)c2cccs2)o1 (stereo not given)	102.8	90.8	82.7	-30.2
CCOc1cc(C2c3c(-c4cc(C)ccc4O)n[nH]c3C(=O)N2CCOC)ccc1O (stereo not given)	104.6	·	·	0.0
CN(c1ccccc1)c1nc(N2CCOCC2)nc(-n2ccnc2)n1	95.8	·	·	-27.2
CCCS(=O)(=O)c1ccc2c(c1)S(=O)(=O)N=CN2	103.3	·	·	-23.7
COc1ccc(-c2nc(CSCC(=O)NCCN3CCN(c4cccc(Cl)c4)CC3)c(C)o2)cc1OC	109.1	98.6	26.9	0.1
Cc1ccccc1C(=O)OC1CCCC1	·	113.6	85.7	-19.9
CSC(=S)n1cccc1	·	102.7	101.7	6.8
CC1(C)CC(NC(=O)c2ccc(C#N)cc2)CC(C)(C)N1	·	97.7	97.8	-6.0
CC(C)CNC(=O)C1Sc2nnc(-c3ccccc3)n2NC1c1ccccc1 (stereo not given)	103.2	115.4	98.5	·
OC(CON=C1c2ccccc2-c2ccccc21)CN1CCN(c2ccccn2)CC1 (stereo not given)	105.9	95.8	46.3	-51.4
COc1ccc(Nc2cc(Nc3ccccc3)ncn2)cc1	97.9	86.9	87.5	-30.4
CNC(=O)c1ccccc1COC(=O)c1cccs1	105.3	96.1	97.6	-13.1
N#CC(C(=O)c1ccccc1Cl)=C1SCCS1	102.0	106.0	88.4	-110.9
CCC1CN(C(=O)Nc2ccccc2F)c2cc(C)ccc2O1 (stereo not given)	99.9	70.4	72.9	-12.2
N#CC(C#N)=CNc1ccccc1N	258.5	102.4	95.3	-19.9
N#CC1=C2SCCN2C(=O)C(C#N)C12CCCCC2 (stereo not given)	96.8	82.5	82.0	-25.2
COC(=O)CSc1n[nH]c(C)n1	102.7	80.8	92.6	-0.4

High-throughput results (PubChem BioAssay)

Hits appear at their usual frequency. Share with any hit: about 0.83%.
